NS1 inh = influenza NS1 inhibition | S. cerevisiae slowed by influenza A NS1, growth recovery by OD600 | Potency, µM (top dose mostly 46.1 µM), inactives show at the top dose activity, positive = more growth | hit rate 0.4% among 270,000 | AID 2326; also: actives are rising curves; nearly all actives have a fitted effect of over 50% in size
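Read-out: OD600 growth recovery of NS1-expressing budding yeast. Cells grown overnight at 30C in -URA glucose medium, washed, resuspended and diluted 1:100 in 2% galactose assay medium, pH 6.0. Same strain lacking NS1 served as positive control.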
Cruzain noTriton = cruzain (T. cruzi) inhibition without detergent. purified cruzain, Z-FR-AMC fluorescence, no detergent. hit rate 2.3% among 200,000. AID 1476. Potency, µM, for the others: max response, negative = inhibition, hits mostly inhibitors; active = well fitted curve in the direction sought with a large enough effect; inconclusive = small, poorly fitted or top-dose-only effect, or another doubt; inactive = no such curve, though single readings can be large; an effect the other way counts as inactive or inconclusive;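 also: plate controls were enzyme without inhibitor for no effect and buffer without enzyme for full effect; nearly all actives have a fitted effect of over 40% in size; top concentration of the series not given in the record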
Target sequence (P25779 123-467 limits assumed): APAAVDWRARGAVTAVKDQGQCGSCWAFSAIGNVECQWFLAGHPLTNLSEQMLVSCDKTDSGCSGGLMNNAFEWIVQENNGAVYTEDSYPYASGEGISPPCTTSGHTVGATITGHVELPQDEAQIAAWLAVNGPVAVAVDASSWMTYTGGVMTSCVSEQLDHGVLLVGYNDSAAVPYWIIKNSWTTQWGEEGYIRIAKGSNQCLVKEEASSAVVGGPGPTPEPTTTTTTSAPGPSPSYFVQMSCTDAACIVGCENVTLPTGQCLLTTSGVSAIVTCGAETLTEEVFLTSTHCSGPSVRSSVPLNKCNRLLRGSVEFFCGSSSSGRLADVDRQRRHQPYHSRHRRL
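Detergent-free condition (0.00005% Triton X-100) in acetate buffer pH 5.5 with DTT. 1.5 nM enzyme and compound were pre-mixed 15 min, then 2 uM Z-FR-AMC substrate added; reaction progress from fluorescence change between first and third reads (60 s).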
Cruzain Triton = blocks cruzain activity in presence of Triton detergent | hit rate 0.43% among 200,000 | purified cruzain, Z-FR-AMC fluorescence, 0.01% Triton | Potency, µM, without a hit: max response, negative = inhibition, hits mostly inhibitors; active = well fitted curve in the direction sought with a large enough effect; inconclusive = small, poorly fitted or top-dose-only effect, or another doubt; inactive = no such curve, though single readings can be large; an effect the other way counts as inactive or inconclusive;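 also: plate controls were neutral wells for no effect and buffer without enzyme for full effect; nearly all actives have a fitted effect of over 40% in size; top concentration of the series not given in the record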
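Read-out: AMC fluorescence (360 nm excitation, 450 nm emission), four reads over 2 min, first-to-third difference used. Conditions: cruzain 1.5 nM, Z-FR-AMC 2 uM, pH 5.5 acetate, 5 mM DTT, 0.01% Triton X-100.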
SARS PLpro yeast = blocks SARS-CoV papain-like protease in a yeast assay. S. cerevisiae expressing SARS-CoV PLpro, growth rescue; control for the full effect not named in the record. Potency, µM (highest dose often 32.9 µM), without a hit: top-dose activity, positive = growth rescue. hit rate 0.19% among 330,000. AID 485353; also: 0% is about no effect; nearly all actives have a fitted effect of over 55% in size; growth read by luminescence after 48 h
RE007 growth inh = less growth of the S. pombe RE007 Vpr strain. Potency, µM (highest dose often 92.2 µM), for the others: top-dose activity change, negative = less growth. S. pombe RE007 Vpr strain, BacTiter-Glo ATP luminescence, 24 h; control for the full effect not named in the record. hit rate 0.21% among 360,000; active = well fitted falling curve with a large enough effect; inconclusive = small, poorly fitted or top-dose-only effect; inactive = no such curve, though single readings can be large or run the other way;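 also: % is scaled to controls: 0 for no effect and ±100 for the full control effect; nearly all actives have a fitted effect of over 50% in size; the assay follows cell death caused by Vpr and the record does not say whether a fall means rescue or toxicity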
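Fission yeast strain RE007, carrying one chromosomally integrated HIV-1 vpr copy, was seeded at OD 0.01 in PMG+AL medium with 23 nL pinned compound. After 24 h at 30 °C and 99% humidity, viability was read by BacTiter-Glo luminescence.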
MARV entry inh = inhibitors of Marburg virus binding or cell entry; hit rate 1.8% among 300,000; Marburg virus pseudotyped entry inhibition, cell reporter; control for the full effect not named in the record; about a third of the inactives were read at about 46 µM; Potency, µM (top dose mostly 37.8 µM), inactives show top-dose activity change, negative = inhibition, actives largely listed as inhibitors; AID 540276; active = well fitted inhibition curve with a large enough effect; inconclusive = small, poorly fitted or top-dose-only effect, or effect the other way; inactive = flat fitted curve, though single readings scatter; tested in HEK293 cells; about a fifth of its hits are not listed in these tables; also: % is scaled to controls: 0 for no effect and ±100 for the full control effect; luciferase read-out
LASV entry inh = blocks Lassa virus binding to or entry into cells; Lassa virus pseudotype entry inhibition, cell reporter; control for the full effect not named in the record; hit rate 1.2% among 300,000; AID 540256; Potency, µM (titrated, usually from 37.9 µM), for inactives: at the highest dose activity change, negative = inhibition, usual class: inhibitors; active means well fitted inhibition curve with a large enough effect; inconclusive means small, poorly fitted or top-dose-only effect, or effect the other way; inactive means flat fitted curve, though single readings scatter; tested in HEK293 cells; also: % is scaled to controls: 0 for no effect and ±100 for the full control effect; nearly all actives have a fitted effect of over 50% in size; luciferase read-out
StopGo reporter = lowers the luciferase signal of an FMDV 2A StopGo reporter. human cells with a luciferase reporter of 2A StopGo recoding; control for the full effect not named in the record. Potency, µM (series often up to 57.9 µM), inactives show at the highest dose signal change, negative = less light. hit rate 1.2% among 410,000; active = well fitted falling curve with a large enough effect; inconclusive = small, poorly fitted or top-dose-only effect; inactive = no such curve, though single readings can be large or run the other way; tested in HEK293T cells; also: % is scaled to controls: 0 for no effect and ±100 for the full control effect; nearly all actives have a fitted effect of over 45% in size; luciferase light after 4 h
The depositor's hits bear a star; ? = inconclusive; nt = not tested or not shown; & = joins results of further samples; [ ] = another dose, or the depositor's remark. Unless noted, calls follow the shape of the dose curve; as a rule, active means well fitted rising curve with a large enough effect; inconclusive means small, poorly fitted or top-dose-only effect; inactive means no such curve, though single readings can be large or run the other way. Potency is read from the fitted curve at half-maximal effect. Outcome played no part in choosing rows; about 4.5% have a hit in one of these screens.

SMILES	NS1 inh	Cruzain noTriton	Cruzain Triton	SARS PLpro yeast	RE007 growth inh	MARV entry inh	LASV entry inh	StopGo reporter
CCCNC(=O)[C@@H]1CCCN1C(=O)C1CCN(S(=O)(=O)c2ccc(C)cc2)CC1	6%	nt	nt	?	16%	?	4%[46.1 µM]	-8%
O=C(CSc1nc2ccccc2c(=O)n1Cc1ccc(Cl)cc1)NCc1cccs1	5%	?	-2.9%	?	8%	?	5%	-9%
NCCSC1CC(=O)N(Cc2ccc(F)cc2)C1=O (configuration not stated)	nt	nt	nt	-4%	-20%	4%[46.1 µM]	-8%	-6%
O=C(c1noc2c1CCCCC2)N1CCOCC1	2%	-3%	3.7%	-2%	9%	7%	?	-3%
CNC(=S)Nc1cc2oc3ccccc3c2cc1OC	-26%	nt	nt	0%	-9%	11%[46.1 µM]	9%[46.1 µM]	24%
CCOc1ccc(NC(=O)COC(=O)c2cc(C)oc2C)cc1	nt	nt	nt	-4%	-23%	6%	14%	-19%
COc1ccc(-c2cn(-c3ccc(OC)cc3)c3[n+]2-c2ccccc2CC3)cc1	11%	-1%	-5.8%	-3%	-1%	?	?	16µM*
O=C(c1cc(S(=O)(=O)N2CCN(c3ccccc3)CC2)ccc1Cl)N1CCCCCCC1	nt	nt	nt	0%	6%	?	?	?
CN(C)C(=O)Oc1cccc(OCc2n(C)c3ccccc3[n+]2C)c1	-5%	7%	-2.0%	7%	-11%	1%	1%	-13%
COc1ccc(-c2oc3ncn4nc(-c5ccccc5Cl)nc4c3c2-c2ccc(OC)cc2)cc1	nt	-9%	-0.6%	nt	nt	nt	15%[46.1 µM]	7%
CCC1CCCCN1CCCNC(=O)CN1C(=O)CSc2ccc(S(=O)(=O)N3CCOCC3)cc21 (configuration not stated)	-10%	-1%	-0.2%	-5%	-11%	nt	nt	-22%&3%
CCOc1ccccc1NC(=O)C(CC(C)C)NS(=O)(=O)c1ccc2c(c1)oc(=O)n2C (configuration not stated)	nt	2%	1.6%	nt	nt	-12%[46.1 µM]	17%[46.1 µM]	5%
COc1ccc(OC)c2c(C)c(C)[nH]c12	-2%	nt	nt	1%	-7%	nt	nt	40%[activator]
CC(C)OP(=O)(c1ccc(N(C)C)cc1)C(O)c1ccccc1 (configuration not stated)	-4%	-1%	2.6%	2%	11%	9%	7%	3%
O=C(O)c1ccccc1CSc1ncccc1C(=O)O	nt	nt	nt	2%	20%	0%[46.1 µM]	12%	-5%
CCN(C(=O)CSc1nc2scc(-c3ccccc3)c2c(=O)n1N)C1CCS(=O)(=O)C1 (configuration not stated)	nt	nt	nt	nt	6%	5%	1%	-9%
Cc1cccc(N2CCN(C(=O)c3oc(=O)c4ccccc4c3-c3ccccc3)CC2C)c1 (configuration not stated)	nt	-6%	-6.1%	nt	nt	8%[46.1 µM]	-15%[46.1 µM]	-20%
Cc1ccc(NC(=O)OCc2cncs2)cc1	2%	nt	nt	0%	12%	-2%[46.1 µM]	-1%[46.1 µM]	27%
COc1cc(NC(=O)Nc2ccc(Cl)c(Cl)c2)c(C(=O)O)cc1OC	6%	nt	nt	1%	-12%	nt	nt	-9%
O=C(Nc1cccc(-c2nc3ncccc3o2)c1)c1sc2cc(Cl)ccc2c1Cl	5%	-18%	-19%	1%	-8%	?	-16%	51%[activator]
COc1ccccc1NC(=O)c1c(C)cc(C)nc1SCC(=O)c1ccc(Cl)cc1	nt	-10%	3.8%	nt	nt	?	6%[46.1 µM]	-19%
COc1cc(/C=C2\C(=N)N3N=CSC3=NC2=O)ccc1OS(=O)(=O)c1ccccc1[N+](=O)[O-]	0%	nt	nt	-1%	-5%	21%	10%	16%
COc1ccc(Nc2nnc(-c3ccc(C)c(S(N)(=O)=O)c3)c3ccccc23)cc1	nt	-8%	-7.4%	nt	nt	nt	-8%[46.1 µM]	90%[activator]
OC1(c2ccc(F)cc2)CSC(=Nc2cccnc2)N1Cc1ccco1 (configuration not stated)	-35%	nt	nt	-4%	4%	-2%[14.2 µM]	0%	-13%
CC(C(=O)NCCN1CCOCC1)(c1ccccc1)c1ccccc1	-1%	nt	nt	-1%	-1%	?	?	-10%
CCn1c(C(=O)O)c(CC(=O)Nc2ccccc2OC)c2ccccc21	6%	nt	nt	0%	4%	nt	nt	-9%
CN1CCN(C(=S)c2ccc(Cl)cc2)CC1	4%	2%	0.4%	3%	0%	0%[46.1 µM]	?	-11%
O=C(CC1C(=O)NCCN1Cc1ccoc1)NCCc1ccc(Cl)cc1 (configuration not stated)	-3%	nt	nt	0%	9%	-19%[46.1 µM]	?	-2%
CSc1nsc(SC)c1C(=O)N1CCN(S(=O)(=O)c2ccc(C)cc2)C1C(C)C (configuration not stated)	18%	-8%	-4.7%	19%	-5%	-22%	-24%	?
C/C(=N\NC(=O)c1cccc(S(=O)(=O)Nc2ccccc2Cl)c1)c1ccc(-n2ccnc2)cc1	-10%	20µM*	-5.3%	7%	-16%	-9%	10%	?
COc1ccc(/C=C/C(=O)Nc2ccc(OC)nc2)cc1	-29%	-10%	-5.6%	-76%	11%	0%	19%	2%
COc1ccc2[nH]c3nc(SCC(=O)NNC(=O)c4ccc(OC)c(OC)c4)nnc3c2c1	12%	-1%	-0.7%	6%	-2%	1%	-1%	7.1µM*
COc1ccc(C(CCN2CCOCC2)c2c(O)cc(OC)cc2OC)cc1 (configuration not stated)	0%	nt	nt	4%	-4%	nt	nt	-13%
COc1ccc(NC(=O)c2nc3nc(C)cc(C(F)F)n3n2)cc1OC	3%	-14%	-3.5%	1%	4%	nt	nt	5%
CC(C)(C)c1ccc(C(=O)NNC(=S)NCc2ccco2)cc1	-3%	nt	nt	1%	-4%	?	?	4%
COCCN(CC1CCCN(C2Cc3ccccc3C2)C1)C(=O)CSC (configuration not stated)	-4%	nt	nt	-5%	2%	nt	nt	2%
COc1ccc(-n2nc(C(=O)NCC(=O)NCCN(C)C)c3ccccc3c2=O)c(OC)c1	-2%	nt	nt	1%	-1%	30%	3%	-4%
CCC(C)NCCOCCOc1ccc(F)cc1 (configuration not stated)	0%	3%	-0.7%	-2%	-9%	-1%	-3%	-15%
CN1CCN(C(=O)Nc2ccc3c(c2)N(C)C(=O)c2ccccc2S3)CC1	nt	nt	nt	1%	-8%	?	-1%	-4%
Cc1ccc2c(C)c(C(=O)N(C)Cc3nccn3C)oc2c1C	-2%	nt	nt	-5%	-10%	nt	nt	19%
CCc1ccc(-c2nc(CS(=O)CC(=O)NCCc3ccccc3)c(C)o2)cc1 (configuration not stated)	-2%	nt	nt	6%	3%	nt	nt	19%
CCCn1c(C)cc(C(=O)COC(=O)c2nccnc2N)c1C	nt	nt	nt	-4%	0%	?	?	-42%
O=c1c2c(-c3ccco3)csc2nc(SCc2cn3cccnc3n2)n1-c1ccccc1	-1%	14%	-1.1%	-2%	-11%	?	?	?
Cc1cccc(Cn2cc(C(=O)Nc3ccc(S(N)(=O)=O)cc3)ccc2=O)c1	nt	29%	-2.4%	nt	nt	nt	14%[46.1 µM]	-26%
CSCCC(NC(=O)C1CCC(C)CC1)C(=O)OCC(=O)c1ccc(Cl)cc1 (configuration not stated)	1%	4%	-6.5%	5%	-5%	-1%	?	-1%
CC1CCCC(C)N1/N=C/c1ccc(O)cc1 (configuration not stated)	2%	nt	nt	1%	-4%	23%[46.1 µM]	16%[46.1 µM]	-8%
COC(=O)Cn1cnc2c(nnn2-c2ccc(C)cc2)c1=O	-7%	6%	2.5%	-2%	13%	-10%	0%	4%
CC(C)(/C=N/O)N(O)C=C1C=CC(=O)C=C1	0%	nt	nt	-1%	7%	nt	nt	7%
COc1ccc(OCc2cc(C(=O)N(C)Cc3cc(C4CC4)n[nH]3)no2)c(Cl)c1	-14%	nt	nt	-2%	-17%	nt	nt	56%[activator]
COc1cc(/C=N/O)cc(Cl)c1OC	3%	-2%	-3.2%	-30%	-10%	?	10%	-17%
CCOc1ccc(OCC)c(Nc2nc3ccc(Cl)cc3n3cnnc23)c1	nt	8%	-2.2%	nt	nt	?	8%[46.1 µM]	-29%
N#C/C(=C\c1ccc(-c2ccc(F)cc2)o1)C(=O)Nc1nc(-c2cccs2)cs1	14%	6.3µM*	4.8%	-1%	-18%	?	-23%	-27%
CN1CCN(S(=O)(=O)c2ccc(NS(=O)(=O)c3ccccc3)cc2)CC1	-6%	nt	nt	-2%	-17%	-3%	1%	14%
CC(=O)N1CCC2(CC1)C(C#N)=C(N)Oc1n[nH]c(C(F)(F)F)c12	2%[9.22 µM]	1%	-1.8%	1%	0%	22%	5%	-24%
O=C(CSc1nc2ccccc2c(=O)n1Cc1ccco1)NCc1ccccc1	11%	nt	nt	nt	-13%	0%&18%	-5%	nt
NC(=O)c1ccc2nc(-c3ccccc3)c(-c3ccccc3)nc2c1	-21%	nt	nt	-3%	-15%	nt	nt	-22%
Cc1cc(C)c(S(=O)(=O)Nc2nccs2)c(C)c1	-2%	nt	nt	-2%	0%	11%	6%	18%
CCN(CC)c1ncnnc1-c1ccccc1	14%	-2%	-2.0%	10%	21%	7%	-2%	-5%
CC1CN(S(=O)(=O)c2ccccc2)C(C)CN1S(=O)(=O)c1ccccc1 (configuration not stated)	9%	3%	2.3%	8%	8%	14%	14%	-7%
COC(=O)[C@H]1CN(C(=O)c2ccccc2)C(=O)N1	3%	nt	nt	-1%	8%	nt	nt	-15%

The list goes on.
SMILES	NS1 inh	Cruzain noTriton	Cruzain Triton	SARS PLpro yeast	RE007 growth inh	MARV entry inh	LASV entry inh	StopGo reporter
O=C(N/C(=C/c1ccc(F)cc1)C(=O)N1CCCCC1)c1ccco1	0%	nt	nt	1%	3%	nt	nt	-14%
CCCCn1c(N)c(N(CC)C(=O)/C=C/c2ccco2)c(=O)[nH]c1=O	5%	nt	nt	-1%	-5%	10%[46.1 µM]	2%[46.1 µM]	18%
Cc1ccc2cc(/C=N/NC(=O)[C@H]3C[C@@H]3c3ccccc3)c(Cl)nc2c1	15%	16%	-7.3%	-12%	-23%	4%	0.065µM*	-19%
COc1ccc(N2C3=C(C(=O)CC(C)(C)C3)C(c3ccccc3OC)C3=C2CC(C)(C)CC3=O)cc1	-2%	nt	nt	-1%	12%	?	-2%[46.1 µM]	-4%
